HPGD inh – qHTS Assay for Inhibitors of HPGD (15-Hydroxyprostaglandin Dehydrogenase); 15-hydroxyprostaglandin dehydrogenase [NAD(+)] (Homo sapiens), P15428; purified HPGD, NADH fluorescence kinetic, PGE2 substrate; Potency, µM, without a hit: at the top dose activity change, negative = inhibition, most hits filed as inhibitors; 150,000 compounds, 4.3% hits; active = well fitted inhibition curve with a large enough effect (not every such curve was filed as active); inconclusive = small, poorly fitted or top-dose-only effect, or another doubt; inactive = no such curve, though single readings can be large or run the other way;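 further: top concentration of the series not given in the record; plate controls included wells without enzyme; inactives centre near -10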
Target sequence (P15428 whole entry, looked up): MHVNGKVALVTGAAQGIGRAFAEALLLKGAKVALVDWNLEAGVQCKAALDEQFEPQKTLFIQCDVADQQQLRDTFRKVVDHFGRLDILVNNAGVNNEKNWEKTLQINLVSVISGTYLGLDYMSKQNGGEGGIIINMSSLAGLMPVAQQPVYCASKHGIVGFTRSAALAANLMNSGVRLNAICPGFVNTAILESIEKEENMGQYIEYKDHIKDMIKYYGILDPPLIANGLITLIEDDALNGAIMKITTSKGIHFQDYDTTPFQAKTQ
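20 nM HPGD preincubated 15 min at room temperature with compound in 50 mM Tris-HCl pH 8, 0.01% Tween 20. Started with 1 mM NAD+ and 30 uM prostaglandin E2; NADH fluorescence (360/450 nm) read 5 times over 30-s intervals, last minus first.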
* = called active by the depositor; u = inconclusive; & = joins results of further samples; [ ] = remark or other dose. On the % scale 0 is the no-effect control and ±100 the full control effect; potency means the concentration at half of the fitted maximal effect. The list is partial, so the mix of outcomes need not match the whole.

SMILES	HPGD inh
Cc1onc(-c2ccccc2)c1C(=O)NC(=S)NNC(=O)c1cccnc1	-5.6%
CCOC(=O)C1CCCCN1Cc1cc(OC)ccc1OC (stereo unspecified)	-5.4%
CC(=O)c1cc(-c2ccccc2)n(CC(=O)Nc2ccc(C)c(C)c2)c1C	-7.9%
CC(C)NC[C@H](O)COc1cccc2[nH]ccc12	-8.5%&0.4%
CCOC(=O)CSc1nnc(Cn2nnc(-c3ccccc3)n2)n1C	0.4%
COc1ccc(C(NC(=O)C2CCCCC2)c2c(O)ccc3ccccc23)cc1 (stereo unspecified)	-14.4%
Nc1ccc2nc(-c3ccccn3)[nH]c2c1	u
CCOc1cc2[nH]c(=S)n(CCc3ccc(OC)c(OC)c3)c(=O)c2cc1OCC	-13.3%
CCC1c2ccc(C)n2CCN1C(=O)Nc1ccc(F)cc1 (stereo unspecified)	-27.5%
COC(=O)NCc1ccc(Cl)c(Cl)c1	-4.5%

Three structures already listed, sorted by heavy-atom count, smallest number first:
SMILES	HPGD inh
COC(=O)NCc1ccc(Cl)c(Cl)c1	-4.5%
Cc1onc(-c2ccccc2)c1C(=O)NC(=S)NNC(=O)c1cccnc1	-5.6%
COc1ccc(C(NC(=O)C2CCCCC2)c2c(O)ccc3ccccc23)cc1 (stereo unspecified)	-14.4%

The listing continues.
SMILES	HPGD inh
O=C(COc1ccccc1F)NC1CCN(Cc2ccccc2)CC1	-4.4%
COc1ccc(NC(=O)c2ccccc2NS(C)(=O)=O)cc1OC	-16.1%
CSc1nc2c(cnn2-c2ccc(C)c(C)c2)c(=O)[nH]1	0.8%
CCC1=C(C(=O)OC)C(c2cc(OC)ccc2OC)C(C#N)=C(N)O1 (stereo unspecified)	-20.7%
Cc1nn(-c2ccccn2)c2c1-c1nc(N)ncc1CC2	u
COc1ccc(-n2c(=S)[nH]c3c(oc4ccccc43)c2=O)cc1	-26.1%
O=C(Nc1cn(-c2ccccc2)nc1-c1cccs1)c1ccco1	-13.3%
CCOC(=O)Nc1nnc(-c2ccc(OC)cc2)s1	-13.8%
CN(C)CCCNC(=O)CC(c1ccccc1)c1ccccc1O (stereo unspecified)	-8.7%
COc1cccc2c(=O)c(C/C=C(/C)Cl)c(C)[nH]c12	u
c1coc(CN2CN=C(Nc3nc4ccccc4s3)NC2)c1	-6.7%
O=C(CN1CCCCC1)Nc1ccc(S(=O)(=O)N2CCOCC2)cc1	-2.1%
COC(=O)C1=C(Nc2ccc(C)cc2)C=C(C)C(C(=O)OC)C1c1cccc(OC)c1 (stereo unspecified)	u
CCOC(=O)Cc1c(C)nc2c(C#N)c(C)nn2c1C	u
CCOc1cc(NC(=O)C2CCCO2)c(OCC)cc1NC(C)=O (stereo unspecified)	-5.5%
CCOc1ccc2nc(NC(=O)c3cccnc3)sc2c1	-15.3%
COc1ccc(Cc2nc(-c3ccccc3)no2)cc1	-15.5%
O=C(Cn1c(C(F)(F)F)nc2ccccc21)c1ccccc1	-13.8%
O=C1C2C3C=CC(C3)C2C(=O)N1CNc1ccccc1 (stereo unspecified)	-12.2%
COc1cccc(OC)c1C(=O)NC(=S)Nc1ccc2c(c1)Cc1ccccc1-2	-16.5%
CCOc1ccc(-c2nnn(CC(=O)NCc3ccc(F)cc3)n2)cc1OCC	-13.4%
Cc1ccc(/C=N/c2sc(Cc3ccccc3)c(C)c2C(N)=O)o1	-4.6%
Cn1nc([N+](=O)[O-])nc1Sc1nnc(-c2ccccc2)o1	-6.7%
CC1Oc2ccccc2N(Cc2ccccc2Cl)C1=O (stereo unspecified)	-2.2%
CC1CC(C)CN(C(=O)Cn2c(=O)n(CCCCC(=O)NCc3ccco3)c(=O)c3ccccc32)C1 (stereo unspecified)	-8.2%
COc1ccc(NC(=O)CN(C)S(=O)(=O)c2cccc3nsnc23)cc1OC	-11.8%
CCc1cc(C(=O)c2ccc(C)cc2)c(NC(=O)CCl)s1	-15.6%
CC(=O)O[C@H]1C[C@@]2(C)[C@@H](C[C@@H](O)[C@H]3[C@@]4(C)CC[C@@H](O)[C@@H](C)C4CC[C@@]32C)/C1=C(\CCC=C(C)C)C(=O)O (stereo partly specified)	4.4%
COc1cc(NC(=O)c2c(F)c(F)c(F)c(F)c2F)c(OC)cc1Cl	-12.3%
COc1ccc(C(=O)NC2CCCCCC2)cc1S(=O)(=O)N1CCCc2ccccc21	-7.2%
CC1CC(C)CN(C(=O)COC(=O)c2cc3ccccc3cc2O)C1 (stereo unspecified)	-23.4%
O=C1/C(=C/c2cccs2)Sc2ccccc21	-12.2%
O=S(=O)(CCc1ccccc1)c1ccccc1	-18.2%
CC1(C)S[C@@H]2[C@H](NC(=O)C3(N)CCCCC3)C(=O)N2[C@@H]1C(=O)O	-9.5%
CCOc1cccc(NC(=O)CSc2nncn2N)c1	-3.1%
NCCS	-8.6%&-6.4%&-11.5%
Cc1ccc(Cn2cc(/C=N/Nc3ccc([N+](=O)[O-])cn3)c3ccccc32)cc1	-15.6%
COc1cc(NC(=O)C23CC4CC(C2)CC(n2cnc([N+](=O)[O-])n2)(C4)C3)cc(OC)c1	-1.1%
c1ccc2c(COn3nnc4ccccc43)cccc2c1	u
CN(C)S(=O)(=O)c1ccc(NC(=O)C2COc3ccccc3O2)cc1 (stereo unspecified)	-6.8%
Nc1nc(SCc2ccccc2Cl)[nH]c(=O)c1-c1ccccc1	-13.8%
CNC(=O)NC(=O)C(OC(=O)c1cccc(S(=O)(=O)N2CCCCC2)c1)c1ccccc1 (stereo unspecified)	-13.8%
COc1ccc(-c2oc(/N=C/N3CCOCC3)c(C#N)c2-c2ccc(OC)cc2)cc1	-22.2%
Oc1ccc(-c2nc3ccccn3c2NCc2ccc3c(c2)OCO3)cc1	u
Cc1ccc(C=Nc2ccccc2C#N)s1	-15.0%
Nc1cc(C(=O)O)ccc1Nc1ccccc1	u
COc1ccc(OCCNC(=S)Nc2cccc3ccccc23)cc1	-12.3%
CCOC(=O)c1cc2c(=O)n3ccccc3nc2n(CCOC)c1=NC(=O)C(C)(C)C	u
CN(c1ccccc1)C(c1ccc(F)cc1)c1nnnn1C1CCCC1 (stereo unspecified)	4.5%
COC(=O)c1ccc(C(NC(=O)OCc2ccccc2)/C(F)=C/[C@@H](C)C(=O)NC2CCCCC2)cc1 (stereo partly specified)	-7.1%

Further results follow:
SMILES	HPGD inh
O=C(c1cccc(N2C(=O)C3C4C=CC(C4)C3C2=O)c1)N1CCCCCC1 (stereo unspecified)	-20.9%
COc1cccc(Nc2ncccc2C(=O)Nc2ccccc2)c1	-4.3%
COC(=O)c1ccc(C)c(NC(=O)CN(c2cc(OC)ccc2OC)S(C)(=O)=O)c1	-9.3%
Nc1nc(SCC(=O)NN(c2ccccc2)c2ccccc2)n[nH]1	-3.0%
COc1ccc(C)cc1NC(=O)CSc1nnc(-c2ccc(Br)cc2)o1	-14.9%
CS(=O)(=O)N(CC(O)Cn1c2ccccc2c2ccccc21)c1cccc2ccccc12 (stereo unspecified)	u
C=CCn1c(SCC(=O)c2[nH]c(C)c(C(C)=O)c2C)nnc1-c1ccncc1	-6.6%
COc1ccc(OC)c(C(C)NC(=O)c2ccc(Br)cc2)c1 (stereo unspecified)	-2.5%
COc1ccc(/C=N/NC(=O)C2(O)c3ccccc3-c3ccccc32)cc1	-4.6%
Cc1ccc(S(=O)(=O)N2CCN(C(=O)CN3CCCCC3)C2)cc1	-0.6%
COC(=O)/C=C1/N/C(=N\c2nc(C)cc(C)n2)N(c2cccc(C)c2)C1=O	-9.7%
CCOC(=O)c1ccc(N2C(=O)CC(N3CC(C)OC(C)C3)C2=O)cc1 (stereo unspecified)	-1.3%
O=Cc1cn(-c2ccc(F)cc2)c2ccccc12	-10.8%
O=C1C2C3C=CC(C3)C2C(=O)N1CCCO (stereo unspecified)	-10.6%
CCCCN=C(Nc1ccc(Cl)cc1)c1cccnc1	-9.4%
Cc1noc(C)c1CSc1nnc(-c2ccccc2)n1N	20µM*
CCOC(=O)c1c(C)c(C(=O)NCC2CCCO2)c(C)n1C (stereo unspecified)	-5.2%
Cc1ccc(C(=O)NNS(=O)(=O)c2ccccc2[N+](=O)[O-])cc1	-19.4%
COC(=O)C1=C(NC(=O)COc2ccc3ccccc3c2)CCS1	106.2%[activator]
Cc1ccc(-c2nn3c(C)nnc3c3ccccc23)cc1S(=O)(=O)N(C)CCO	-24.4%
Cc1ccc(N2C(=O)C3C4C=CC(CNC(=S)Nc5ccc(Cl)cc5)(O4)C3C2=O)cc1 (stereo unspecified)	u
COCCn1c(SCc2ccc(C(=O)OC)o2)nc2cc(Cl)ccc2c1=O	-15.7%
C=CCN1CCN(c2nc3ccccc3nc2C#N)CC1	-5.2%
Cc1ccc(S(=O)(=O)N2CCC(=O)N(CCOC(=O)Nc3cc(C)cc(C)c3)CC2)cc1	-11.2%&-1.5%
C=CCn1cc(C(=O)NCc2ccc(Cl)cc2)c(=O)c2cc(S(=O)(=O)N(CC)CC)ccc21	15.1%
CC12C(=O)N(Cc3ccccc3)C(=O)C1C1C=CC2C1 (stereo unspecified)	-0.8%
COc1ccc(S(=O)(=O)Nc2nc3ccccc3s2)cc1OC	-3.2%
CCOCc1cn(CC(=O)c2ccc(Cl)cc2)c(C)nc1=N	-7.0%
Cc1cccc(NC(=O)C2CCCN(C(=O)NC3CCCCC3)C2)c1C (stereo unspecified)	-16.3%
CC(=O)OCC1OC(Oc2cc(OC(C)=O)c3c(=O)cc(-c4ccc(OC(C)=O)cc4)oc3c2)[C@@H](OC(C)=O)C(OC(C)=O)C1OC(C)=O (stereo partly specified)	-5.1%
CCOc1ccc(C(=O)Nc2ccc(NC(=O)c3ccco3)c(Cl)c2)cc1Cl	u
COc1ccc(-c2cc(=O)c3c(OC(C)=O)cc(OC(C)=O)cc3o2)cc1	u
O=C(CSc1ccc2c(c1)OCCO2)NCCN1C(=O)CSC1=O	-7.5%
Cn1c(N)c(C(=O)COC(=O)c2cc(-c3ccccc3)nc3ccccc23)c(=O)n(Cc2ccccc2)c1=O	u
CCn1c(COc2ccc(=O)n(-c3ccccc3)n2)nnc1SCc1ccccc1	-4.8%
CCCCN(C(=O)Cn1nnc2ccccc21)C(C(=O)NCCOC)c1ccc(OC)cc1 (stereo unspecified)	2.0%
CC(C)(O)C#Cc1ccc(C(=O)N2CCCC2C(=O)O)s1 (stereo unspecified)	-0.7%
O=C(Nc1ccccc1)N1CCCCC1c1cccnc1 (stereo unspecified)	-2.7%
COc1ccc(-n2c(C)cc(/C=C3\SC(=S)N(Cc4ccco4)C3=O)c2C)cc1	-8.5%
N#CCSc1nc2c(c(=O)n1Cc1ccco1)C1(CCCC1)Cc1ccccc1-2	-9.3%
Cc1ccc(-c2csc3ncn(CC(=O)N4CCOCC4)c(=O)c23)cc1	-7.4%
COc1cc2c3c(c1OC)C1(C=CC(=NO)C=C1)CC3N(C(C)=O)CC2 (stereo unspecified)	1.0%
CC(C)[C@@H](CC(=O)N[C@@H]1CCNC[C@H]1C(=O)N[C@H](CC(=O)N[C@@H](CCC(=O)O)CC(=O)O)Cc1ccccc1)NC(=O)C[C@H](Cc1c[nH]c2ccccc12)NC(=O)[C@@H]1CCCC[C@H]1N	-4.4%
COc1ccc(C2C(C#N)=C(N)Nc3onc(C(C)(C)C)c32)c(OC)c1 (stereo unspecified)	-5.8%
O=C(Oc1ccccc1Cl)c1ccc(N2CCOCC2)c([N+](=O)[O-])c1	u
Cc1ccc2nc3sc(C(=O)N4CCCc5ccccc54)c(N)c3cc2c1	-13.1%
CC1(C)CC(=O)C2=C(C1)NCN(Cc1ccccc1)C2	-3.6%
COc1cccc(NC(=O)c2ccccc2NS(C)(=O)=O)c1	-10.8%
O=C(NC1CCCCC1)C(c1cccnc1)N(CCc1ccccc1)C(=O)Cc1cccs1 (stereo unspecified)	-3.9%
O=C(CSCc1cccc(Cl)c1)N1CCN(Cc2ccc3c(c2)OCO3)CC1	-1.6%

New compounds follow.
SMILES	HPGD inh
COc1cc(-c2[nH]nc3c2C(c2ccco2)C(C#N)=C(N)O3)cc(OC)c1OC (stereo unspecified)	-23.0%
c1ccc(-c2nc(NCC3CCCO3)c3ccccc3n2)nc1 (stereo unspecified)	-10.7%
O=C(CCn1nc(-c2ccccc2)c2ccccc2c1=O)N1CCN(c2ccccc2)CC1	-11.3%
Cc1ccc(C(C(=O)NC2CCCC2)N2CCCCC2)cc1 (stereo unspecified)	-7.6%
CCOc1ccc(CN2CCN(C(=O)c3ccccc3)CC2)cc1	-8.1%
CCCC1C(c2ccc(OC)cc2)C(C#N)(C#N)C2(C#N)CC1(N)NC2=O (stereo unspecified)	-6.5%
CCOC(=O)Cc1csc(NC(=O)c2cccc(OC)c2)n1	-15.0%
CCn1ncc([N+](=O)[O-])c1C(=O)N1CCCC1	-5.8%
COc1cccc(OC)c1Oc1ccc(C(F)(F)F)cn1	-4.4%
N#CCCCS(=O)(=O)c1nnnn1-c1ccc(Br)cc1	-10.3%
COC(=O)c1scc(C)c1NC(=O)C1CCCCC1	-13.0%
Cc1ccc(S(=O)(=O)N2CCN(C(=O)CSc3nc4ccccc4o3)C2)cc1	-5.3%

No new results follow: an excerpt of the list.
SMILES	HPGD inh
CCCC1C(c2ccc(OC)cc2)C(C#N)(C#N)C2(C#N)CC1(N)NC2=O (stereo unspecified)	-6.5%
CCOC(=O)Cc1csc(NC(=O)c2cccc(OC)c2)n1	-15.0%
CCn1ncc([N+](=O)[O-])c1C(=O)N1CCCC1	-5.8%
COc1cccc(OC)c1Oc1ccc(C(F)(F)F)cn1	-4.4%
N#CCCCS(=O)(=O)c1nnnn1-c1ccc(Br)cc1	-10.3%
COC(=O)c1scc(C)c1NC(=O)C1CCCCC1	-13.0%
Cc1ccc(S(=O)(=O)N2CCN(C(=O)CSc3nc4ccccc4o3)C2)cc1	-5.3%
